FGF22 binding: binders of human FGF22 protein, primary screen, FGF22 synaptogenesis inhibitor project, biophysical, thermal shift, single point. Fibroblast growth factor 22 (Homo sapiens), Q9HCT0. recombinant FGF22 thermal shift, SYPRO orange fluorescence; percent of sucrose octasulfate shift, DMSO zero. calls only at 9.99 µM. actives 1.5% (n = 340,000). AID 651658, 2012;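 active means melting point raised past a set limit in the mean and every replicate; three in four hits are not shown here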
Target sequence (Q9HCT0 whole entry, looked up): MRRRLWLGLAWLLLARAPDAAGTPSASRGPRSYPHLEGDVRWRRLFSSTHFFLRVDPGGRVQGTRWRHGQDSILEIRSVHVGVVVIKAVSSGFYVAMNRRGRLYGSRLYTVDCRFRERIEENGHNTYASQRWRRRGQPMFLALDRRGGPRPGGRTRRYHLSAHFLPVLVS
Ecoli rRNA inh: reduced GFP signal of wild-type E. coli, primary screen, bacterial rRNA inhibitor project, GFP/RFP fluorescence, OD600, single point. actives 1.6% (n = 350,000). GFP signal change (wild-type ribosome), % (no concentration beside the values). E. coli WT GFP vs humanized-ribosome RFP mutants, 24 h; hits give low values; DMSO median 0, no signal -100;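 active means significant combined selectivity score with lowered wild-type GFP, culture density cut under 30%, mutant RFP and density less affected; inactive means any of these conditions unmet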; further: one replicate is shown; some compounds called inactive have numbers as strong as hits
MLL AF4-AF9 inh: inhibitors of AF4 peptide binding to AF9, primary screen, biochemical, AlphaScreen, biotin-AF4 peptide, FLAG-AF9, single point. Protein AF-9 (Homo sapiens), P42568. inhibition, % at 10 µM. actives 0.47% (n = 350,000);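 active means every replicate reaching a set inhibition limit, whatever the replicate mean, cut at about 25% in these data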;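 further: 0% = plate neutral control median and 100% = total signal loss; the record names both 10 and 1 µM as test concentration; the first replicate is given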
Target sequence (P42568 whole entry, looked up): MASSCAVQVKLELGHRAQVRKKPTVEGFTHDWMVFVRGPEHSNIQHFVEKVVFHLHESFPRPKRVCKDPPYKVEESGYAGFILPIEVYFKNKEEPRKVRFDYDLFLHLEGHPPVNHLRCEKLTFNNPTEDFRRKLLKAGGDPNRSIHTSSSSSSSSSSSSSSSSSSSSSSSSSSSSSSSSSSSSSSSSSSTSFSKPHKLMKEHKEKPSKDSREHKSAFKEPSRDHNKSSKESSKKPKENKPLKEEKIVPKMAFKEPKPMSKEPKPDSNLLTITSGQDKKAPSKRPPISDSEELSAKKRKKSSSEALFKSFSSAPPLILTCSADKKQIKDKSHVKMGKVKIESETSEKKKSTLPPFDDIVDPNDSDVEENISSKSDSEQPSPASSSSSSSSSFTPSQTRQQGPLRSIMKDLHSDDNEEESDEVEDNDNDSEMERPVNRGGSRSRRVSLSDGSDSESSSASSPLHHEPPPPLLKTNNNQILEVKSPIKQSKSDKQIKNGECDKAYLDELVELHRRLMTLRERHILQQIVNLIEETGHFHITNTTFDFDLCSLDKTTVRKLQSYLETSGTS
Ecoli rRNA inh OD600: further read-out of Ecoli rRNA inh, marked with its call; OD600 change, %; measured here: OD600 growth;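 optical density of the mix in the first replicate; 0 = DMSO median and -100 = no signal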
Ecoli rRNA inh RFP: further read-out of Ecoli rRNA inh, marked with its call; RFP signal change, %; measured here: RFP humanized mutant strains;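 first replicate; 0 = DMSO median and -100 = no signal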
* hit, by the source's call; i = inactive; . = not tested or not shown; & = joins results of further samples. These rows are one share of the data. The share of hits here may be higher or lower than overall.

SMILES | FGF22 binding | Ecoli rRNA inh | Ecoli rRNA inh OD600 | Ecoli rRNA inh RFP | MLL AF4-AF9 inh
CO[C@@H](C(=O)N(C)C[C@@H]1OCc2ccccc2-c2ccccc2C(=O)N([C@@H](C)CO)C[C@H]1C)c1ccccc1 | i | -1 | 5 | 0.4 | -4.0
CCNC(=O)[C@@H]1[C@@H](CO)[C@@H]2Cn3c(ccc(-c4cncnc4)c3=O)[C@@H]2N1Cc1ccc2c(c1)OCO2 | i | 2 | 6 | -1.4 | -0.9
C[C@@H]1CN([C@@H](C)CO)C(=O)c2cc(C#CC3(O)CCCC3)cnc2O[C@H]1CN(C)C(=O)Nc1ccc2c(c1)OCO2 | i | 1 | 1 | -3.5 | 1.4
O=C(CCN1CCCCC1)N[C@H]1CC[C@@H](CCn2cc(-c3cccc(F)c3)nn2)O[C@@H]1CO | i | 1 | 7 | -1.5 | 2.0
CC=Cc1ccc2n(c1=O)C[C@@H]1[C@@H](CO)[C@H](C(=O)NCCc3cn(C)cn3)N(C(=O)C3CC3)[C@H]21 (mixture of isomers) | i | 0 | 0 | -0.9 | -0.6
COc1cccc(N2CCN(S(=O)(=O)c3ccc4ccccc4c3)CC2)c1 | i | -2 | 0 | 2.3 | -1.3
CCCCN(C)CCCNC(=O)Cn1cc2c(n1)-c1c(oc(C(=O)N3CCCC3)c1C)CC2 | i | 2 | -2 | 1.1 | 2.2
O=C(Nc1cccc2ccccc12)N(c1ccccc1)c1ccccc1 | i | -9 | -32 | -8.8 | 1.6
C[C@H]1CN([C@@H](C)CO)C(=O)Cc2cc(NC(=O)c3ccncc3)ccc2O[C@@H]1CN(C)Cc1ccc(C(=O)O)cc1 | i | -1 | 8 | -0.4 | -4.8
O=C(C[C@H]1CC[C@H](NC(=O)c2ccncc2)[C@@H](CO)O1)NCC1CC1 | i | -1 | -5 | 0.4 | -1.3
CC(C)C[C@@H](CN1CCC[C@@H]1CN1C(=O)C(=O)NC[C@@H]1Cc1ccccc1)N1C[C@H](Cc2ccc(O)cc2)N(CC2CCCCCC2)C(=O)C1=O | i | 21 | 9 | 12 | 1.3
C[C@@H]1CN([C@H](C)CO)C(=O)c2cc(NC(=O)C3CC3)ccc2O[C@H]1CN(C)C(=O)Nc1ccc(F)cc1 | i | 2 | 2 | -1.8 | -0.9
O=C(Nc1ccc(F)cc1)N1C[C@@H]2[C@H](c3ccccc31)[C@@H](CO)N2C(=O)Cc1ccccc1 | i | -45 | -76 | -10 | -0.2
COc1cccc(C(=O)Nc2ccc3c(c2)OC[C@H](C)N(C)C[C@H](C)[C@@H](OC)CN(C)C3=O)c1 | i | -1 | -3 | -0.1 | -3.4
C[C@H](CO)N1C[C@H](C)[C@@H](CN(C)S(=O)(=O)c2cn(C)cn2)Oc2ncc(Br)cc2C1=O | i | 6&3 | 22&17 | -3.5&-6.3 | -2.4&-1.3
O=C(Nc1ccc(Cl)c(C(F)(F)F)c1)C1Cc2c(-c3ccccc3Oc3ccccc3)ccnc2O1 (stereo not given) | i | 18 | 30 | 0.8 | -0.8
O=C(NC1c2ccccc2Oc2ccccc21)c1ccc([N+](=O)[O-])cc1 | i | 3 | 14 | 0.6 | -2.0
Cc1cccc(-c2ocnc2C(=O)Nc2ncc(C)s2)c1 | i | 3 | 10 | 0.1 | -1.9
CCNC(=O)C[C@H]1CC[C@@H]2[C@H](COc3ccc(NC(=O)c4ccc(F)c(F)c4)cc3C(=O)N2C)O1 | i | -2 | 6 | 0.6 | -0.3
Cc1noc(C)c1S(=O)(=O)N(C)C[C@H]1Oc2ccc(NC(=O)Nc3cccc4ccccc34)cc2CC(=O)N([C@@H](C)CO)C[C@H]1C | i | -3 | -5 | 2.8 | -0.7
CSc1ccccc1C(=O)OCC(=O)NC1CC1 | i | 6 | 5 | -0.5 | 1.3
CC=Cc1ccc2n(c1=O)C[C@H]1[C@H](CO)[C@@H](C(=O)N(C)C)[C@@H]2N1CCc1ccccc1 (mixture of isomers) | i | 2 | 5 | -4.0 | 1.3
Cc1noc(C)c1S(=O)(=O)Nc1ccc2c(c1)C(=O)N([C@@H](C)CO)C[C@H](C)[C@@H](CN(C)S(=O)(=O)c1ccc(F)cc1)OCCCC[C@@H](C)O2 | i | 2 | -1 | 1.6 | 0.2
Cc1ccc(S(=O)(=O)N[C@@H]2CC[C@H](CCNC(=O)C3CCCC3)O[C@H]2CO)cc1 | i | 2 | 0 | 1.0 | 0.4
COc1ccc(S(=O)(=O)N2CCCc3nc(-c4ccccc4)ccc32)cc1 | . | -4 | -12 | 4.1 | 1.2

Other records.
SMILES | FGF22 binding | Ecoli rRNA inh | Ecoli rRNA inh OD600 | Ecoli rRNA inh RFP | MLL AF4-AF9 inh
CO[C@H]1CN(C)C(=O)c2cc(NS(=O)(=O)c3cn(C)cn3)ccc2OC[C@H](C)N(Cc2cccc(F)c2)C[C@@H]1C | i | 1 | -1 | 1.9 | 0.5
CCCC#Cc1ccc2c(c1)O[C@@H](CN(C)CC1CCOCC1)[C@@H](C)CN([C@@H](C)CO)S2(=O)=O | i | 4 | 8 | -0.1 | 6.3
CCOC1=C2[C@H](c3ccccc3)N(S(=O)(=O)c3ccc(C)cc3)C(C(C)(C)C)[C@H]2n2c(=O)n(-c3ccccc3)c(=O)n2C1 (stereo not given in full) | i | 8 | 2 | -0.9 | 10
C[C@@H]1CN([C@H](C)CO)C(=O)c2cccc(N(C)C)c2O[C@H]1CN(C)C(=O)Nc1ccc(F)cc1 | i | 0 | 3 | 0.5 | -4.1
C[C@H]1CN([C@@H](C)CO)C(=O)c2cccc(NC(=O)Nc3cccc4ccccc34)c2O[C@H]1CN(C)C(=O)Nc1ccccc1 | i | -1 | -2 | 2.7 | 0.4
CC(C)NC(=O)N(C)C[C@H]1OCCCC[C@@H](C)Oc2ccc(NC(=O)CCC(F)(F)F)cc2C(=O)N([C@@H](C)CO)C[C@H]1C | i | -2 | -2 | -0.2 | -4.2
COc1ccc(S(=O)(=O)Nc2cccc3c2O[C@@H](CN(C)Cc2ccc(C(=O)Nc4ccccc4N)cc2)[C@@H](C)CN([C@H](C)CO)C3=O)cc1 | i | -2 | -10 | -4.3 | 0.7
C[C@@H]1CN([C@H](C)CO)C(=O)c2cc(-c3cccc(C#N)c3)cnc2O[C@H]1CN(C)Cc1ccccc1 | i | 5 | 7 | 0.6 | 0.2
CC(C)Cc1ccc(CN2C(C(C)C)C(=O)N(Cc3cn(CCC4OCCO4)nn3)CCS2(=O)=O)cc1 (stereo not given) | i | -4 | 5 | -0.8 | 0.6
CC=Cc1ccc2n(c1=O)C[C@H]1[C@H](CO)[C@@H](C(=O)NC3Cc4ccccc4C3)N(CC)[C@@H]21 (mixture of isomers) | i | -5 | -6 | 1.1 | 1.6
Cc1ccc(S(=O)(=O)N(C)C[C@H]2Oc3ccc(NC(=O)Nc4ccc5c(c4)OCO5)cc3C(=O)N([C@@H](C)CO)C[C@H]2C)cc1 | i | 0 | -14 | -6.8 | 3.8
COc1ccc(S(=O)(=O)Nc2ccc3c(c2)CC(=O)N([C@@H](C)CO)C[C@H](C)[C@H](CN(C)Cc2ccc(C(F)(F)F)cc2)O3)cc1 | i | 0 | -1 | 3.3 | 0.0
C[C@@H]1CCCCO[C@@H](CN(C)C(=O)Cc2ccccc2)[C@H](C)CN([C@H](C)CO)C(=O)c2cc(NS(=O)(=O)c3cccs3)ccc2O1 | i | -5 | -7 | 4.0 | 1.3
C[C@@H]1CN([C@@H](C)CO)C(=O)Cc2cc(NC(=O)Nc3ccc(F)cc3)ccc2O[C@H]1CN(C)C | i | 2 | 15 | -2.1 | 1.8
CCOC(=O)C1=C(C)NC(C)=C(C(=O)OCC)C1c1cccc([N+](=O)[O-])c1 | i | -13 | -12 | 2.9 | 0.0
CCNC(=O)C[C@@H]1CC[C@@H]2[C@H](COc3ccc(NC(=O)c4cscn4)cc3C(=O)N2C)O1 | i | 1 | 12 | -1.3 | -1.9
C[C@H]1CN([C@@H](C)CO)C(=O)c2cc(N(C)C)ccc2O[C@@H]1CN(C)Cc1ccc2c(c1)OCO2 | i | 1 | -2 | 0.1 | 0.0
OC(c1ccc(Cl)c(F)c1)c1ncc(-c2ccc(Cl)cc2)[nH]1 (stereo not given) | i | -30 | -57 | -12 | 11
CN(C)C(=O)C[C@@H]1C[C@H]2c3cc(NC(=O)c4cccnc4)ccc3O[C@H]2[C@H](CO)O1 | i | 3 | 8 | 0.3 | 0.8
C[C@H](CO)N1C[C@H](C)[C@@H](CN(C)S(=O)(=O)c2ccccc2)OCCCC[C@H](C)Oc2ccc(NS(=O)(=O)c3ccc(F)cc3)cc2C1=O | i | -6 | -2 | -1.3 | 0.1
CC(O)(c1ccccc1)c1nc(-c2ccccc2)cs1 (stereo not given) | i | -44 | -74 | -18 | -10
C[C@@H]1CCCCO[C@@H](CN(C)CC2CCCCC2)[C@H](C)CN([C@@H](C)CO)C(=O)c2cc(NC(=O)Nc3ccccc3)ccc2O1 | i | 3 | 0 | 2.8 | 1.5
C[C@H]1CN([C@@H](C)CO)C(=O)c2cc(NC(=O)Nc3ccc(F)cc3)ccc2O[C@@H]1CN(C)S(=O)(=O)c1ccc(Cl)cc1 | i | -2 | -14 | 4.7 | 4.5
COc1ccc(S(=O)(=O)N(C)C[C@@H]2Oc3ccc(NC(=O)Nc4ccccc4)cc3CC(=O)N([C@@H](C)CO)C[C@@H]2C)cc1 | i | -4 | -8 | 7.4 | 3.0
COc1ccc(S(=O)(=O)Nc2ccc3c(c2)C(=O)N([C@H](C)CO)C[C@@H](C)[C@H](CN(C)Cc2ccc(-c4ccccc4)cc2)O3)cc1 | i | 3 | -10 | -1.2 | 0.0

Next part
SMILES | FGF22 binding | Ecoli rRNA inh | Ecoli rRNA inh OD600 | Ecoli rRNA inh RFP | MLL AF4-AF9 inh
Cc1noc(C)c1NC(=O)Nc1ccc2c(c1)C(=O)N([C@H](C)CO)C[C@@H](C)[C@@H](CN(C)S(=O)(=O)c1ccc(F)cc1)O2 | i | 4 | 8 | 0.1 | -0.4
O=C(Nc1cccc(F)c1)N1CCc2nc(NCc3cccc(Oc4ccccc4)c3)ncc2C1 | i | -4 | -7 | 7.7 | -0.6
Cc1cc(O)ccc1Nc1cc(-c2cccc(N(C)C)c2)ncn1 | i | 6 | 6 | 5.9 | 1.5
COCCCN1C(=O)C(CC(=O)NCc2cccc3ccccc23)CC(C(=O)N2CCOCC2)=C1C (stereo not given) | i | 10 | 12 | -0.8 | -0.7
COc1ccc(C(C)(O)c2nc(-c3ccccc3C)cs2)cc1 (stereo not given) | i | -8 | -33 | 4.8 | -1.4
COC(=O)[C@]1(C)N[C@H](CN(C)C(=O)COc2ccccc2)[C@@H]2C(=O)N(C)C(=O)[C@@H]21 | i | 6 | 12 | -1.0 | -5.4
CN(C)CCNC(=O)c1cccc(-c2cnc3c(NC=O)cc(-c4cccc(F)c4)cn23)c1 | i | -39 | -52 | -6.8 | 7.1
COc1cccc(S(=O)(=O)N(C)C[C@@H]2Oc3ncc(C#Cc4cccc(F)c4)cc3C(=O)N([C@H](C)CO)C[C@@H]2C)c1 | i | 8 | 10 | 0.7 | -0.8
Cc1cccc(C)c1NC(=O)C(c1ccccc1)N1CCN(c2ccc(C(F)(F)F)cn2)CC1 (stereo not given) | i | 5 | 8 | -3.8 | -0.8
COC(=O)C[C@H]1CC[C@@H]2[C@H](COC[C@H](O)CN2S(=O)(=O)c2ccccc2OC)O1 | i | 2 | -3 | -1.2 | -0.3
O=C(NCc1cccc(F)c1)Nc1nnc([C@H]2C[C@H](O)[C@@H](CO)O2)s1 | i | 18 | 21 | 0.7 | 3.7

Assay outcomes as filed in PubChem.
